2A firefly: FMDV 2A StopGo reporter, firefly signal. HEK cells with a luciferase reporter of 2A StopGo recoding. Potency, µM (titrated, usually from 57.5 µM), without a hit: at the top dose signal change, negative = less light. hit rate 0.23% among 120,000. AID 1745856; active = well fitted falling curve with a large enough effect; inconclusive = small, poorly fitted or top-dose-only effect; inactive = no such curve, though single readings can be large or run the other way; also: nearly all actives have a fitted effect of over 60% in size; overnight with compound
StopGo RLuc: FMDV 2A StopGo reporter, Renilla signal; hit rate 0.32% among 120,000; Potency, µM (highest dose often 57.5 µM), for inactives: at the top dose signal change, negative = less light; HEK cells with a luciferase reporter of 2A StopGo recoding; active means well fitted falling curve with a large enough effect; inconclusive means small, poorly fitted or top-dose-only effect; inactive means no such curve, though single readings can be large or run the other way; also: nearly all actives have a fitted effect of over 55% in size; overnight with compound
* hit, by the source's call; ? = inconclusive; [ ] = remark or other dose. % is scaled to controls: 0 for no effect and ±100 for the full control effect; potency is read from the fitted curve at half-maximal effect. Only part of the results is shown; rates above refer to the full screens.

Sequence of screens: 2A firefly | StopGo RLuc
COc1ccc(N(C(=O)C2CC2)C2C=CS(=O)(=O)C2)c(OC)c1 (stereo not given)
  -2% | -9%
CCc1nn(CC(=O)NCc2cccc(OC)c2)c(=O)c2cc3cc(F)ccc3n12
  -6% | -2%
CCCOc1ccc(/C=C(/C#N)c2nc3ccccc3[nH]2)cc1OCC
  10% | 208%[activator]
Cc1cc(OCC(=O)Nc2ccc(NC(=O)C3CC3)cc2C(F)(F)F)ccc1Cl
  -10% | 6%
Fc1cccc(OCc2cc(-c3ccccc3)on2)c1
  233%[activator] | 52%[activator]
COc1cccc(/C=C/c2nc(C#N)c(NCCc3ccccc3)o2)c1
  -3% | 17%
CCOC(=O)c1c(C)[nH]c(C)c1S(=O)(=O)NCC(=O)NCc1ccc(C)cc1
  -7% | 70%[activator]
Cc1sc(NC(=O)COc2ccc(C(C)(C)C)cc2)c(C(=O)OC(C)C)c1C
  15% | -14%
Cc1cc(C)n(-c2nc3ccccc3nc2Nc2ccc(F)c(F)c2)n1
  -9% | -11%
CC(C)n1cnc(I)c1I
  0% | 6%
CCn1c(CNC(=O)c2ccc(OC)cc2)nnc1SCC(=O)Nc1ccccc1
  10% | -3%
Cc1cc(N2CCN(C)CC2)nc2ccc(NC(=O)Nc3cccc(Cl)c3)cc12
  0% | 21%
COc1cccc(-n2cc(C(=O)Nc3ccccc3C(N)=O)c3ccccc3c2=O)c1
  67%[activator] | 101%[activator]
Cc1ccc(C)c(Cn2c(=O)cc(C(F)(F)F)c3c(C)nn(C)c32)c1
  23% | 3%
Cn1cc(C(=O)NC2CCS(=O)(=O)C2)c2ccccc21 (stereo not given)
  -1% | -5%
CC(=O)N1CCOc2cc(S(=O)(=O)NCc3ccc(C)cc3)c(Cl)cc21
  4% | 189%[activator]
O=C(CCCN1C(=O)c2cccnc2Oc2ccc(Cl)cc21)NCc1ccccc1F
  -10% | -6%
Cc1ccc(C23CC4CC(CC(CN)(C4)C2)C3)cc1C
  ? | ?
CCC(C)NC(=O)C(C)NC(=O)NCCNC(=O)C1CC1 (stereo not given)
  2% | 4%
CC(C)CCn1c(N2CCN(CC(N)=O)CC2)nc2c1c(=O)[nH]c(=O)n2C
  14% | 8%
CN(C)c1ccc(NC(=O)c2ccc[n+]([O-])c2)cn1
  35%[activator] | -4%
CCN(CC)c1ccc(C2Nc3ccccc3-c3cc(C)nn32)cc1 (stereo not given)
  22% | -10%
COc1cccc(-c2cc(C(F)(F)F)nc(NCc3ccc(F)cc3)n2)c1
  5% | 3%
CC(C)COc1ccc(C2=NC(c3ccncc3)=Nc3ccc(F)cc3N2)cc1
  13% | 12%
CCN(Cc1ccccc1)S(=O)(=O)c1ccc(N2CCCCS2(=O)=O)cc1
  ? | ?
Cc1ccccc1S(=O)(=O)Cc1ccc(C(=O)NC2CCC(C)CC2)o1 (stereo not given)
  -2% | 6%
Cc1ccc(S(=O)(=O)N2CCC(C(=O)Nc3nc4c(s3)CCCC4)CC2)cc1C
  10% | 37%[activator]
CCC(CC)NC(=O)c1cccc(Cl)c1
  -8% | -8%[1.06 µM]
C=CCNc1nc2c(c(=O)n(C)c(=O)n2C)n1CC
  -7% | -8%
CN(C)S(=O)(=O)c1ccc(CN)s1
  -12% | -9%

Some of these compounds in order of SMILES length, rising:
Sequence of screens: 2A firefly | StopGo RLuc
CC(C)n1cnc(I)c1I
  0% | 6%
CCC(CC)NC(=O)c1cccc(Cl)c1
  -8% | -8%[1.06 µM]
Fc1cccc(OCc2cc(-c3ccccc3)on2)c1
  233%[activator] | 52%[activator]
C=CCNc1nc2c(c(=O)n(C)c(=O)n2C)n1CC
  -7% | -8%
Cc1ccc(C23CC4CC(CC(CN)(C4)C2)C3)cc1C
  ? | ?
Cn1cc(C(=O)NC2CCS(=O)(=O)C2)c2ccccc21 (stereo not given)
  -1% | -5%
CN(C)c1ccc(NC(=O)c2ccc[n+]([O-])c2)cn1
  35%[activator] | -4%
CCN(CC)c1ccc(C2Nc3ccccc3-c3cc(C)nn32)cc1 (stereo not given)
  22% | -10%
COc1cccc(/C=C/c2nc(C#N)c(NCCc3ccccc3)o2)c1
  -3% | 17%
CCCOc1ccc(/C=C(/C#N)c2nc3ccccc3[nH]2)cc1OCC
  10% | 208%[activator]
Cc1ccccc1S(=O)(=O)Cc1ccc(C(=O)NC2CCC(C)CC2)o1 (stereo not given)
  -2% | 6%
COc1cccc(-c2cc(C(F)(F)F)nc(NCc3ccc(F)cc3)n2)c1
  5% | 3%
CCN(Cc1ccccc1)S(=O)(=O)c1ccc(N2CCCCS2(=O)=O)cc1
  ? | ?
Cc1ccc(C)c(Cn2c(=O)cc(C(F)(F)F)c3c(C)nn(C)c32)c1
  23% | 3%
Cc1cc(N2CCN(C)CC2)nc2ccc(NC(=O)Nc3cccc(Cl)c3)cc12
  0% | 21%
CCc1nn(CC(=O)NCc2cccc(OC)c2)c(=O)c2cc3cc(F)ccc3n12
  -6% | -2%
CC(C)CCn1c(N2CCN(CC(N)=O)CC2)nc2c1c(=O)[nH]c(=O)n2C
  14% | 8%
Cc1ccc(S(=O)(=O)N2CCC(C(=O)Nc3nc4c(s3)CCCC4)CC2)cc1C
  10% | 37%[activator]
CCOC(=O)c1c(C)[nH]c(C)c1S(=O)(=O)NCC(=O)NCc1ccc(C)cc1
  -7% | 70%[activator]

New compounds follow
Sequence of screens: 2A firefly | StopGo RLuc
CC1(C)CC(NC(=O)CCC2CCCCC2)CC(C)(CNC(=O)CCC2CCCCC2)C1 (stereo not given)
  13% | -1%
CCCn1c2ccccc2c2cnn(CC(=O)N(CCCOC(C)C)Cc3ccco3)c(=O)c21
  -22% | 2%
CCCCCn1nc(C(=O)Nc2nnc(C(C)C)s2)c2ccccc2c1=O
  19% | 9%
O=C(COc1ncnc2c(Cl)cc(Cl)cc12)N1CCCCCC1
  1% | -3%
COCCN1CCc2nc(SCC(=O)Nc3ccc(Br)cc3)[nH]c(=O)c2C1
  -4% | -14%
COc1ccc(C2C=C(c3ccc(F)cc3)Nc3nc(-c4ccc(Cl)cc4)nn32)cc1 (stereo not given)
  -7% | -6%
COc1cccc(CNC(=O)c2ccc(-n3c(C)cc4c3CCCC4)cc2)c1
  22% | 3%
CC(Cc1ccco1)NC(=O)c1ccc(Cl)c(S(C)(=O)=O)c1 (stereo not given)
  6% | -5%
C=CCNCc1ccc(-c2cccc(C(F)(F)F)c2)o1
  39%[activator] | 14%
COC(=O)C(C)Oc1ccc2c(=O)c(-c3ccc(Br)cc3)c(C)oc2c1 (stereo not given)
  8% | -10%
Cc1csc(CNC(=O)c2cccnc2)n1
  13% | 9%
CCOC(=O)c1c(C)[nH]c(C)c1S(=O)(=O)N1CCCC(C(=O)Nc2ccc(OC)c(OC)c2)C1 (stereo not given)
  -12% | 8%
COc1cccc(S(=O)(=O)N2CCN(Cc3ccc4c(c3)OCO4)CC2)c1
  -10% | 8%
CCOC(=O)c1ccc(NC(=O)CSc2nnc(-c3cccc(Cl)c3)n2Cc2ccco2)cc1
  53%[activator] | 45%[activator]
Cc1ccc(Cn2c(=O)n(Cc3nc(-c4ccccc4)no3)c(=O)c3ccccc32)cc1
  -5% | 7%
O=[N+]([O-])c1cccc2nc(/C=C/c3ccccc3C(F)(F)F)ccc12
  57%[activator] | -7%[1.06 µM]
COc1ccc(NC(=O)Cn2c(=O)n(-c3cc(C)cc(C)c3)c(=O)c3oc4ccccc4c32)cc1OC
  4% | -3%
O/N=C/c1cccc(OCc2ccncc2)c1
  102%[activator] | -7%
COc1ccc(C2OCC3OC(OC)C(OCc4ccccc4)C(O)C3O2)cc1 (stereo not given)
  ? | ?
O=C(NCc1ccc2c(c1)CCN2C(=O)c1ccncc1)c1ccccc1Br
  -35% | -17%
Cc1cc(C)c(NC(=O)CN(C)C(=O)C2CCN(C(=O)c3ccc(Cl)cc3)CC2)c(C)c1
  -8% | -16%
Cc1ccc(CNC(=O)C2CCCN2C(=O)OC(C)(C)C)cc1F (stereo not given)
  1% | 8%
COc1ccccc1/C=C(/C#N)C(=O)c1c(Cl)cccc1Cl
  -10% | ?
CN(Cc1ccc(C(F)(F)F)cc1)C(=O)C1CCN(C(=O)/C=C/c2ccccc2)CC1
  -22% | ?
N#Cc1cccnc1NCCNc1ccccn1
  0% | 0%
FC(F)Oc1ccc(NC(=S)NCCc2ccccc2)cc1
  278%[activator] | 175%[activator]
O=C(O)Cn1ccc2cc(S(=O)(=O)N3CCCCCC3)ccc21
  7% | -3%
O=C(NCc1ccc(Cl)cc1)C1CCN(c2ncnc3nc[nH]c23)CC1
  8% | 0%
CCC(=O)N1N=C(c2ccc(OC)cc2)CC1c1cn(-c2ccccc2)nc1-c1cccs1 (stereo not given)
  2% | -4%
COCCCn1c(=N)c(C(=O)NCc2ccco2)cc2c(=O)n3ccccc3nc21
  -3% | -12%

One compound at a time, from the list above. Order of values: 2A firefly	StopGo RLuc
COCCCn1c(=N)c(C(=O)NCc2ccco2)cc2c(=O)n3ccccc3nc21 is entered as -3%	-12%
O=C(NCc1ccc(Cl)cc1)C1CCN(c2ncnc3nc[nH]c23)CC1 is entered as 8%	0%

(list continues)
Sequence of screens: 2A firefly | StopGo RLuc
CN(C)C(=O)CN1CCN(C(C(=O)O)c2c[nH]c3cc(F)ccc23)CC1 (stereo not given)
  -7% | -7%
Clc1ccc(CNC2=NCCNC23CCCCCC3)cc1
  -4% | -5%
COc1ccc(C(=O)Nc2cnc3c(cnn3C(C)C)c2)cc1S(=O)(=O)N1CCCC1
  32µM* | ?
COc1ccc(NC(=O)Cn2c(=O)n(-c3cccc(C)c3)c(=O)c3c2c2cc(C)ccc2n3C)cc1Cl
  ? | -17%
O=C(CSc1nccc(C(F)(F)F)n1)c1ccccc1
  101%[activator] | 29%
CCCOC(=O)c1c(NC(=O)c2nc3nc(C)cc(C(F)F)n3n2)sc2c1CCCC2
  -10% | 3%
COc1ccc2cc(CNC(=O)c3cnc4ccccc4n3)ccc2c1
  2% | -25%
Clc1ccccc1-n1nnnc1-c1ccccc1
  17% | 28%
COC(=O)CNC(=O)/C(C)=C/c1ccccc1
  0% | 24%
CN(Cc1ccccc1)C(=O)CNC(=O)NCc1ccccc1
  0% | 18%
COc1ccc(C(=O)COc2ccccc2C#N)cc1Br
  186%[activator] | 16%
Cc1cccc(NC(=O)c2cc(S(=O)(=O)N3CCCCCC3)cn2C)c1C
  3% | 26%
O=C(CCn1c(=O)c2cccn2c2cccnc21)N1CCN(c2ccc(F)cc2)CC1
  -15% | -8%
CC(=O)N1CCc2cc(S(=O)(=O)NC(Cc3ccccc3)C(=O)NCc3ccccc3Cl)ccc21 (stereo not given)
  -19% | 89%[activator]
Cc1ccc(Nc2sc(C(=O)c3ccc(F)cc3)c(N)c2S(=O)(=O)c2ccc(C)cc2)cc1
  -30% | -12%
Cc1ccc(C)c(S(=O)(=O)Nc2nc3ccccc3nc2Nc2ccc(C(=O)O)cc2)c1
  6% | 15%
CCc1cc2c(cc3c(=O)n(CC(=O)N4CCCCC4)ncn32)s1
  36%[activator] | 5%
COc1ccc(C(=O)NC2CC(=O)N(c3ccc(F)cc3)C2)cc1 (stereo not given)
  0% | -5%
CCC(=O)N1c2ccccc2CC1C(=O)NCCc1ccc(OC)cc1OC (stereo not given)
  -18% | -11%
CC1=C/C(=N\NC(=S)Nc2ccc(F)cc2)CC1
  82%[activator] | 22%
COC(=O)COc1ccc(C2C3=C(CC(C)(C)CC3=O)OC3=C2C(=O)CC(C)(C)C3)cc1
  -6% | 4%
OCc1ccc(-c2nc3ccccc3s2)o1
  62%[activator] | -6%
Cc1ccc(C(=O)COc2ccc(C3CCCCC3)cc2)cc1
  0% | 52%[activator]
CN(CC(=O)Nc1cccc(F)c1)C(=O)Cc1csc(-c2cccc(Br)c2)n1
  -9% | -8%
COC(=O)CC1=C(C)C(=O)CC2C(C)(C)CCC[C@]12C (stereo not given in full)
  11% | 21%
Cc1cc(C)n2nc(SCC(=O)Nc3ccccc3)nc2n1
  -7% | -11%
O=C(Cn1c(=O)n(Cc2ccc(F)cc2)c(=O)c2sccc21)NCc1ccco1
  15% | 14%
O=C(CCc1ncc(-c2ccc(F)cc2)o1)NCc1ccc(Cl)cc1
  0% | 3%

Compound activity deposited in PubChem BioAssay by National Center for Advancing Translational Sciences (NCATS).
